# Rango dissoc inh: prevents RanGTP from dissociating the Rango-importin beta complex. O95149+P62826. Biochemical FRET Rango-importin beta, RanGTP-induced dissociation. Potency, µM (top dose mostly 46.1 µM), inactives show at the top dose activity change, negative = inhibition. 0.071% of 340,000 active; active means falling FRET ratio curve, often poorly fitted, with flat reads before Ran was added; inconclusive means other falling curves, or compound fluorescence or quenching; inactive means flat or rising ratio curve;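 note: potency is the fitted concentration of half-maximal effect; % of control where 0% means no effect; nearly all actives have a fitted effect of over 45% in size; -100% = wells without RanGTP and RCC1; the record marks most hits as doubtful in a second field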
#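 Recombinant Rango FRET biosensor (EYFP–snurportin 1 IBB–cerulean CFP10) at 0.1 uM premixed with 0.25 uM importin beta in PBS, 1 mM DTT, 0.02% Tween-20, 0.1% BSA. Compound added 5 min; RanGTP-RCC1 (0.6 uM Ran, 2 mM GTP, 0.2 uM RCC1) then triggers release, read at 45 min.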
# Rango complex inh: prevents formation of the Rango-importin beta complex; Q14974; Rango CFP/YFP FRET sensor + importin beta, 45 min; Potency, µM (top dose mostly 92.2 µM), for the others: top-dose inhibition of complex formation; 0.031% of 340,000 active; AID 540263; active = rising FRET ratio curve, often small or poorly fitted; inconclusive = mostly compound fluorescence or quenching in the first reads; inactive = flat curves in all reads;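 note: potency is the fitted concentration of half-maximal effect; 0% = DMSO wells and 100% = buffer wells lacking importin beta; nearly all actives have a fitted effect of over 15% in size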
# Target sequence (Q14974 whole entry, looked up): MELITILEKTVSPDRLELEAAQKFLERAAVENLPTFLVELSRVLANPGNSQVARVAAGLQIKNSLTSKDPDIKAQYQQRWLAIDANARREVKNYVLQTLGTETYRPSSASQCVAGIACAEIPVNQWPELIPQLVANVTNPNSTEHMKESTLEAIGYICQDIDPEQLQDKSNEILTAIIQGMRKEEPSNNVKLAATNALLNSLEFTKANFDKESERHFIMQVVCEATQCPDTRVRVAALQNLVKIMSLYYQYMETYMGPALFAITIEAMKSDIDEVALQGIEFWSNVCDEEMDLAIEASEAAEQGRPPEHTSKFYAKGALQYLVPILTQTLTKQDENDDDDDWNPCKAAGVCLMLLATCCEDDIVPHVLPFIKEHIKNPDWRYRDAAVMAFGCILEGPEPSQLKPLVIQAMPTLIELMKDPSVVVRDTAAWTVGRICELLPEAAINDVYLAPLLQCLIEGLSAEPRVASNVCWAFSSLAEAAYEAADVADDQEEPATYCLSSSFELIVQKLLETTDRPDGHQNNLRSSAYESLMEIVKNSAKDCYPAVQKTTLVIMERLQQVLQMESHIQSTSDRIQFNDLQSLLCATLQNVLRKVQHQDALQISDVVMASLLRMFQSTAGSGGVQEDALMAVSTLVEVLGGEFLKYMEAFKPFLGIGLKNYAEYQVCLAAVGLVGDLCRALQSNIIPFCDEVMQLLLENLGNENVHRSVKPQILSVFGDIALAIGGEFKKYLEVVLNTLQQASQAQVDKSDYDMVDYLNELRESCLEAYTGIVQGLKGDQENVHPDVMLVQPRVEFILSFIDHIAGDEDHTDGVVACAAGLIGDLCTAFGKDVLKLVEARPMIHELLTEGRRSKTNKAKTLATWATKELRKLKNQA
#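 FRET biosensor (snurportin 1 IBB flanked by EYFP and cerulean), 50 nM, with compound 5 min, then 0.125 microM importin beta in PBS, 1 mM DTT, 0.02% Tween-20, 0.1% BSA. CFP/YFP ratio read after 45 min at room temperature; pre-read flags interference.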
# GLA inh pH 4.5: inhibitors of human alpha-galactosidase A at pH 4.5; purified enzyme, 4-MU-alpha-Gal fluorescence, pH 4.5; activity change, negative = inhibition, % at 105 µM; 230,000 tested, under 10 active; inconclusive = small, poorly fitted or top-dose-only inhibition, or a rising curve; inactive = flat fitted curve, though single readings scatter; no compound was filed as active;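 note: 0% = full activity with enzyme and -100% = basal without enzyme; dose as in the result columns while the protocol names 77 µM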
# miR-21 FLuc: miR-21 reporter, rising signal; HeLa miR-21 FLuc reporter, luciferase, 48 h; Potency, µM (series often up to 38.3 µM), for the others: at the highest dose reporter change, positive = more light; 340,000 tested, under 10 active; AID 2288; active = well fitted rising curve with a large enough effect; inconclusive = small, poorly fitted or top-dose-only effect; inactive = no such curve, though single readings can be large or run the other way;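 note: % of control where 0% means no effect; miR-21 action dims this reporter so a rising signal means less miR-21 action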
#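 HeLa cells endogenously expressing miR-21, stably carrying CMV-driven firefly luciferase with a downstream miR-21 binding site, 2000 cells/well. Titrations up to approximately 40 uM, 48 hours; luciferase luminescence read.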
# * = called active by the depositor; ? = inconclusive; . = not tested or not shown. A portion of the library, so the mix of outcomes need not match the whole.
SMILES,Rango dissoc inh,Rango complex inh,GLA inh pH 4.5,miR-21 FLuc
O=P(NS(=O)(=O)c1ccc(Cl)cc1)(Oc1ccccc1)Oc1ccccc1,12.3%,5.1%,4.1,-10.4%
CCCCn1c(O)c(/C=C2/C=CC=N2)c(=O)[nH]c1=O,-19.8%,?,6.8,23.3%
CCOC(=O)c1c(C=O)c2ccccc2n1Cc1ccccc1,-14.4%,1.3%,.,3.6%
O=c1[nH]c(Cl)ccc1CN1CCOCC1,5.1%,2.2%,.,.
[O-][n+]1onc2c1CCC1N(O)CCC21O (stereo not drawn),-4.5%,0.3%,-9.8,-4.1%
Nc1nc(N)nc(-c2ccc(Oc3ccccc3)cc2)n1,-1.0%,8.6%,2.8,-48.4%
CCN(CC)CCOC(=O)c1ccc(N=Cc2c(O)[nH]c(=O)[nH]c2=O)cc1,-2.6%,1.8%,-2.3,-0.6%
C[C@]12CC[C@@H](O)CC1=CCC1C2CC[C@@]2(C)C1C[C@@H](F)[C@H]2O (stereo partly drawn),11.9%,2.1%,.,.
Cc1ccc(CN2CCCC(C(=O)c3cccc(C(F)(F)F)c3)C2)o1 (stereo not drawn),0.2%,1.0%,-4.0,-1.0%
c1ccc(CCNCc2ccccc2)cc1,-2.1%,1.6%,-2.9,-12.5%
COC(=O)C1=C(C(=O)OC)C2OC1c1cc3ccccc3cc12,3.7%,0.3%,.,.
CN1CCN(c2ccc(S(=O)(=O)C(F)(F)F)cc2[N+](=O)[O-])CC1,-23.8%,-1.0%,0.2,-12.0%
COC[C@H]1OC(=O)c2coc3c2[C@@]1(C)C1=C(C3=O)[C@@H]2CCC(=O)[C@@]2(C)C[C@H]1OC(C)=O,?,?,.,.
CC(=NCCO)c1c(O)n(C2CCCCC2)c(=O)[nH]c1=O,9.3%,0.4%,3.3,-22.4%
C=CCN1CCc2cccc3c2[C@H]1Cc1ccc(O)c(O)c1-3,-0.6%,-2.6%,.,8.6%
O=C(c1ccccc1)C(Cc1ccccc1)N1CCOCC1 (stereo not drawn),10.3%,5.7%,.,.
N#CC(C#N)=C(N)c1cccnc1,-5.1%,-0.2%,?,1.1%
C=CCn1c(O)c(C(C)=Nc2ccc(NC(C)=O)cc2)c(=O)[nH]c1=O,-14.4%,4.9%,3.8,-3.5%
CC1(c2ccccc2)NCCN2C(=O)CSC21 (stereo not drawn),4.5%,?,-9.1,-3.7%
CNC(=O)Nc1ccc(C(O)(C(=O)OC)C(F)(F)F)cc1 (stereo not drawn),-11.3%,-0.4%,0.3,-2.9%
Fc1cccc(CN2CCN(c3ccc(Cl)cc3)CC2)c1,-6.3%,-2.8%,.,-4.6%
O=C(Cc1ccccc1)OCCN1CCCCC1,0.8%,5.3%,-3.5,-3.5%
COc1cc2c(cc1OC)-c1c(OC)c(OC)cc3c1C(C2)N(C)CC3 (stereo not drawn),-13.8%,-3.6%,1.5,-15.9%
CCOC(=O)C1(c2ccccc2)CCN(CCC(C#N)(c2ccccc2)c2ccccc2)CC1,2.1%,0.7%,.,.
ClCCN1CCSCC1,1.9%,3.2%,.,.
NP(=O)(OCC(F)(F)F)Oc1ccc(Cl)cc1 (stereo not drawn),-2.2%,-2.0%,12.3,-11.3%
CCN1CCN(c2ncnc3ccc(Br)cc23)CC1,8.2%,-1.6%,-7.4,12.9%
C=CP(=O)(O)c1ccccc1,-24.9%,-1.6%,-1.9,-2.0%
O=c1c(C=NCc2cccs2)c(O)n(C2CCCCC2)c(=O)n1C1CCCCC1,16.0%,0.0%,-4.8,-2.9%
CN1CCC2(CC1)NC(=O)c1ccccc1N2,2.7%,-0.8%,23.9,-0.5%

# Two of these compounds, reformatted.
Molecule	Rango dissoc inh	Rango complex inh	GLA inh pH 4.5	miR-21 FLuc
c1ccc(CCNCc2ccccc2)cc1	-2.1%	1.6%	-2.9	-12.5%
COC(=O)C1=C(C(=O)OC)C2OC1c1cc3ccccc3cc12	3.7%	0.3%	.	.

# (more compounds)
SMILES,Rango dissoc inh,Rango complex inh,GLA inh pH 4.5,miR-21 FLuc
O=C1NC(=O)N(c2ccc3c(c2)OCO3)C(=O)/C1=C/c1ccc(N2CCCC2)o1,?,?,-10.8,-16.4%
Cc1nn(Cc2ccccc2)c(Cl)c1C(=O)O,-4.6%,4.9%,-10.5,0.2%
CC(=O)OC1N=C(c2ccccc2)c2cc(Br)ccc2N(C)C1=O (stereo not drawn),-8.3%,1.9%,5.9,1.1%
O=C(CNC(=O)c1ccccc1)Nc1ccc(Br)cc1C(=O)c1ccccc1,7.0%,5.1%,-7.5,3.0%
Fc1ccc(C(OCCN2CCCC2)c2ccc(F)cc2)cc1,36.5%,1.6%,-3.3,1.9%
COc1ccc(C(CC(=O)Nc2ccccn2)N2Cc3ccccc3C2=O)cc1 (stereo not drawn),-7.9%,-0.1%,.,-39.2%
COC(=O)C1=C(c2cccc(OC)c2OC)C[C@@H]2CC[C@H]1N2C(=O)N1CCCCC1,-8.1%,-0.1%,.,.
O=c1c(/C=N/N2CCOCC2)c(O)n(-c2ccccc2)c(=S)n1-c1ccccc1,9.4%,0.2%,13.2,-12.7%
O=P(C(=Nc1ccc(Cl)cc1)N1CCOCC1)(N1CCOCC1)N1CCOCC1,-6.5%,-3.6%,-0.4,-1.1%
NC(Cc1ccccc1)Cc1ccccc1,-9.1%,-0.6%,-0.5,1.5%
Cc1c(C)c2ccc(OCC(=O)N3C[C@H]4C[C@@H](C3)c3cccc(=O)n3C4)c(C)c2oc1=O,0.1%,0.0%,.,-4.0%
c1ccc(C2c3ccccc3-n3nncc3CN2CC2CCCCC2)cc1 (stereo not drawn),0.2%,0.0%,.,.
O=c1[nH]c(CN2CC=C(c3ccccc3)CC2)nc2cc(C(F)(F)F)ccc12,?,?,2.3,0.2%
Cn1c(O)c(C(=O)c2ccccc2Cl)c(=O)n(C)c1=O,?,?,2.5,-0.5%
Cc1ccc(OCCOc2cccc(C=C3C(=O)NC(=O)NC3=O)c2)c(C)c1,-21.1%,0.3%,.,-44.6%
COC(=O)C1=C(c2ccc(-c3ccccc3)c(F)c2)C[C@@H]2CC[C@H]1N2C(=O)NCCCOC(C)C,6.9%,1.0%,.,.
Cc1cccc(N2C(=O)NC(=O)/C(=C\C=C\c3ccco3)C2=O)c1,-21.1%,?,-6.8,12.0%
CC12CCC(=O)C=C1C=CC1C2CCC2(C)C(O)CCC12 (stereo not drawn),-13.1%,0.3%,.,.
O=c1[nH]c(=O)n(Cc2ccc(F)cc2)c(O)c1C=NCc1cccnc1,-2.0%,0.9%,-1.9,-0.7%
COc1ccc(OC)c(CC(=O)N(C)C2CCCN(Cc3ccccc3F)C2)c1 (stereo not drawn),-9.9%,-0.2%,.,-0.3%
CCN1C[C@@]2(COC)C3[C@@H](OC)[C@H]4[C@@H]1[C@@]3(C1C[C@H]3[C@H](OC(=O)c5ccccc5)C1[C@]4(OC(C)=O)C[C@H]3OC)[C@@H](OC)C[C@H]2O (stereo partly drawn),-7.5%,-1.5%,.,.
O=C(Nc1ccc(Cl)cc1)O/N=C(\c1ccccc1)c1ccccn1,-14.8%,0.8%,-3.7,-34.0%
C=CCC1(CCCCC)C(=O)NC(=S)NC1=O,-8.8%,-3.7%,.,.
CC(C)NC(C)C(=O)C12CC3CC(CC(C3)C1)C2 (stereo not drawn),8.1%,-2.0%,-4.5,-3.6%
NS(=O)(=O)c1nc[nH]c1[N+](=O)[O-],-7.4%,5.5%,.,.
Cc1cccc(N2C(=O)NC(=O)/C(=C\c3cccn3-c3ccc(Cl)cc3)C2=O)c1,1.2%,-2.2%,5.8,8.6%
FC(F)(F)c1ccccc1CN1CCN(Cc2ccccc2)CC1,7.4%,-1.2%,?,-5.5%
CC1CCCCN1C(=O)c1ccc(N2CC3CC(C2)c2cccc(=O)n2C3)c([N+](=O)[O-])c1 (stereo not drawn),4.7%,-0.1%,-1.1,-8.2%
Cc1cc([N+](=O)[O-])c(Cl)cc1NC(=O)C(C)C,-1.8%,5.2%,0.1,-6.6%
O=C(c1ccc(Cl)cc1)C1CCCN(Cc2cccc3ncccc23)C1 (stereo not drawn),21.0%,0.3%,-8.9,0.9%
O=C(O)c1cccc2c1NC(c1cccc([N+](=O)[O-])c1)C1CC(Sc3ccccc3[N+](=O)[O-])C(Cl)C21 (stereo not drawn),-0.6%,3.7%,4.8,-15.9%
COC(=O)CC1(CC(=O)OC)C(=O)N(c2ccccc2)C(=O)N(c2ccccc2)C1=O,1.0%,0.1%,.,-11.4%
CCCCn1c(O)c(C(C)=NCCCN(CC)CC)c(=O)[nH]c1=O,?,1.6%,1.3,-0.9%
CCCCN1C(=O)/C(=C/c2ccc(N3CCCCCC3)cc2)C(=O)NC1=S,.,.,6.4,2.2%
C=CC[C@@H](CC/C=C/C=C/CC/C=C\[C@@H]1CSC([C@@H]2C[C@@H]2C)=N1)OC,-10.6%,-0.8%,.,.
Cc1ccc(-c2cc(C(F)F)n3ncc(C(=O)N4CCC5(CC4)OCCO5)c3n2)cc1,-5.2%,-3.7%,-6.7,0.1%
CCOc1cc(C=C2C(=O)NC(=O)NC2=O)cc([N+](=O)[O-])c1O,.,.,2.7,0.3%
FC(F)(F)c1ccc(CNCCc2ccc3c(c2)OCO3)cc1,8.1%,0.5%,.,1.0%
CCCCCn1c(=O)c(C(=O)Nc2ccccc2S(N)(=O)=O)c(O)c2ccccc21,9.1%,0.3%,0.4,-36.6%
O=C(CCc1nnc2ccc(NCc3ccc(F)cc3)nn12)N1CCC2(CC1)OCCO2,0.0%,-2.5%,.,-1.9%
CCC12C=CCN3CCC4(c5cc(Br)c(OC)cc5N(C)C4C(O)(C(=O)OC)C1OC(C)=O)C32 (stereo not drawn),5.1%,1.4%,-0.2,3.2%
NC(Cc1ccccc1)c1nc2ccccc2[nH]1 (stereo not drawn),-1.0%,-0.7%,.,-39.2%
O=C(Nc1cccc2ccccc12)c1nn(C23CC4CC(CC(C4)C2)C3)cc1Br,-7.2%,-0.8%,-1.3,-2.4%
COC(=O)C1=CO[C@@H](OC2OC(CO)C(O)C(O)C2O)[C@@H]2C(CO)=CC[C@H]12 (stereo partly drawn),28.0%,-1.5%,-6.8,-3.6%
O=C(c1ccco1)C12CN3CN(CN(C3)C1)C2,-2.3%,0.2%,1.6,-6.9%
O=C(CN1C(=O)CN=C(c2ccccc2)c2ccccc21)NCc1ccco1,-19.8%,-2.4%,2.8,-8.4%
CN1CCN(C(=O)COc2ccc(S(=O)(=O)NCc3ccccc3)cc2Cl)CC1,1.0%,0.6%,5.7,-0.2%
CO[C@@H]1C=CC23c4cc5c(cc4CO[C@]2(O)CN(C)[C@H]3C1)OCO5 (stereo partly drawn),-2.6%,-2.0%,.,.
C[C@]12CCC(=O)C(O)=C1CC[C@@H]1[C@@H]2CC[C@]2(C)C(=O)CC[C@@H]12,-6.7%,-0.6%,1.3,-12.1%
Cn1c(O)c(C=Nc2ccccc2)c(=O)n(C)c1=O,2.1%,0.1%,.,-1.8%
C[C@@H]1C[C@@H]([C@H](O)CC2CC(=O)NC(=O)C2)C(=O)[C@@H](C)C1,6.5%,-4.7%,-11.9,.
Cc1ccc2c(c1)CC1(CN2C)C(=O)NC(=O)N(c2ccc(C)c(C)c2)C1=O (stereo not drawn),-3.9%,-3.0%,1.4,-0.4%
CN1C(=O)C(C2c3ccccc3C(=O)N2Cc2ccccc2)C(=O)N(C)C1=O (stereo not drawn),14.3%,7.5%,-1.0,-7.0%
COc1cccc(-n2nc(C(=O)N3CCC4(CC3)OCCO4)c3ccccc3c2=O)c1,1.9%,-2.8%,-9.3,1.4%
Nc1cc(N2CCNCC2)ccc1[N+](=O)[O-],13.0%,0.3%,-0.3,-14.4%
CN=C(SCc1cc2c(cc1Cl)OCO2)c1c(O)n(C)c(=O)n(C)c1=O,-0.1%,-0.1%,9.6,0.6%
C[C@]12CCC3C(CC[C@H]4C[C@@H](O)CC[C@]34C)C1C[C@@H](O)[C@H]2O (stereo partly drawn),5.5%,-2.5%,.,.
CC1CN(C(=O)CCC(=O)N2CCC3(CC2)OCCO3)c2cc(Cl)ccc2O1 (stereo not drawn),1.5%,0.2%,.,3.2%
